VDR inh: inhibitors of human vitamin D receptor. AID 504847. P11473. Potency, µM, for the others: max response, negative = inhibition, actives largely listed as inhibitors. 400,000 compounds, 0.93% hits. VDR-SRC2-3 peptide fluorescence polarization, 2 h; active = well fitted inhibition curve with a large enough effect; inconclusive = small, poorly fitted or top-dose-only effect, or another doubt; inactive = no such curve, though single readings can be large or run the other way; also: series mostly up to about 120 µM
Target sequence (P11473 whole entry, looked up): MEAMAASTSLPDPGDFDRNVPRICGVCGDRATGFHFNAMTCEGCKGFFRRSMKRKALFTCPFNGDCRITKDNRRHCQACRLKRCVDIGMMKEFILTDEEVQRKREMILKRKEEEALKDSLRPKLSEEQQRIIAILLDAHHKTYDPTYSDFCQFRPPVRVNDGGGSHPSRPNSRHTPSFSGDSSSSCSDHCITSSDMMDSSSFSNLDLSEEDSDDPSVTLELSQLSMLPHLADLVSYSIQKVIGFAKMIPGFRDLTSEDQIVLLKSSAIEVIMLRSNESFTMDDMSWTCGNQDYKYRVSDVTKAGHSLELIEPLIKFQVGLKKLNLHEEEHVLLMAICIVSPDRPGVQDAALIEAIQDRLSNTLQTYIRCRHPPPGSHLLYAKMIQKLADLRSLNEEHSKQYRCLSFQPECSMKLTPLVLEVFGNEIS
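Reagent solutions, kept cold and dark, are dispensed first; compounds are then pinned in at 23 nl, plates briefly spun, and incubated 2 h at ambient temperature. Inhibition of VDR–SRC2-3 peptide binding is read by fluorescence polarization.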
Active calls of the source: *; ? = inconclusive; & = joins results of further samples. % is scaled to controls: 0 for no effect and ±100 for the full control effect; potency is read from the fitted curve at half-maximal effect. Not all compounds are listed; count on the stated rates, not on these rows.

SMILES | VDR inh
CCC(NC(=O)CCc1nnc(-c2cc(C)on2)o1)C12CC3CC(CC(C3)C1)C2 (centres undefined) | -6.4%
Cc1ccc(C(=O)NC2CCCCCCC2)cc1S(=O)(=O)N1CCOCC1 | -4.9%
CC(C)CCOCC1CC2(CC(C)(c3csc(N)n3)OC2=O)C(=O)O1 (centres undefined) | -6.5%
COc1cccc(-c2nn(-c3ccc(C)cc3)cc2C(=O)NCC2CCCO2)c1 (centres undefined) | -23.4%
Cc1cc2c(cc1S(=O)(=O)Nc1ccc(C(C)C)cc1)OCCN2C | -3.6%
CC(C)c1nc(SCC(=O)c2ccc(F)cc2)c2ccccc2n1 | ?
CCCCCCCCC#Cc1nc(C)ccc1OC | 4.7%&2.2%
COC(C#CCCN(C)C)(c1ccccc1)c1ccccc1 | 17.4%
CCOC(=O)CNC(=O)c1sc(NC(=O)c2ccccc2)nc1C | 1.2%
C=CCNc1nc2ccccc2nc1NS(=O)(=O)c1ccc(Cl)cc1 | -13.8%
Cc1c(-c2ccccc2)nc(N)c(C#N)c1-c1cccs1 | -11.4%
CC(=O)N(/N=C1\Sc2ccccc2C1=O)c1ccccc1 | 15.1%
CNC(=O)CN1C(=O)NC(Cc2c[nH]c3ccccc23)C1=O (centres undefined) | -16.2%
Cc1cccc(-c2nnn(CC/C(N)=N/O)n2)c1 | -7.5%
COc1ccc(OC)c(Nc2ncnc3ccc(Br)cc23)c1 | 5.3%
Cc1cccc(NC(=O)Cn2cnc3ccc(S(=O)(=O)N4CCC(C)CC4)cc3c2=O)n1 | 11.7%
COc1ccc(N2CC(C(=O)N/N=C/c3ccc(C)cc3)CC2=O)cc1 (centres undefined) | -16.4%
COc1ccc(C(C)=O)cc1COC(=O)CCNS(=O)(=O)c1ccc(C)cc1 | -8.8%
CCN1C(=O)c2ccc(C(=O)O)cc2C1=O | 8.0%
NC(N)=N/N=C/c1ccc(Cl)cc1Cl | -5.3%
CCc1nc2ccccc2nc1N1CCN(S(=O)(=O)c2ccc(Cl)cc2)CC1 | 11.3%
Cc1ncc([N+](=O)[O-])n1CCOC(=O)NC(Nc1ccc(F)cc1)C(Cl)(Cl)Cl (centres undefined) | 1.5%
Clc1ccc(-n2nnnc2-c2cnc3ccccc3c2-c2ccccc2)cc1 | -9.7%
Cc1ccc(Nc2nc(-c3ccccc3)cs2)nc1 | -11.6%
c1ccc(Oc2cc(-n3cncn3)ncn2)cc1 | -15.7%
c1ccc(-c2cncnc2)cc1 | -2.3%
O=C(Nc1cc(S(=O)(=O)N2CCOCC2)ccc1N1CCCCC1)c1cc(-c2ccccn2)nc2ccccc12 | 44.7µM*
COc1ccc(CN(C(=O)c2snc(C(N)=O)c2N)C(C)C(=O)NCc2ccc(F)cc2)cc1 (centres undefined) | 7.5%
O=C(COC(=O)c1ccccc1Cl)Nc1ccc2[nH]c(=O)[nH]c2c1 | -17.9%
COc1ccc(NC(=O)Cc2nnc(SCC(=O)c3ccccc3)n2C)cc1 | 7.8%
COc1ccc(-c2nc3sc(CCNC(=O)c4cccc(C(F)(F)F)c4)c(C)n3n2)cc1 | 6.8%
CC(=O)c1cc2c(cc1NC(=O)CN1Cc3ccccc3C1=O)OCO2 | -4.9%
O=C(NC(=S)Nc1cccc(S(=O)(=O)NC2=NCCC2)c1)c1cc(-c2ccco2)nc2ccccc12 | -22.9%
O=C(O)c1c[nH]c(=S)n1-c1ccc(F)cc1 | -11.5%
NC(=O)C1=C[C@H](c2ccc(Br)cc2)C[C@H](OCc2ccc(CO)cc2)O1 | -18.9%
COC(=O)CCS(=O)(=O)c1ccc(Cl)c(Cl)c1 | 2.3%
CSc1ccccc1C(=O)NC(C)c1ccc(-n2ccnc2)cc1 (centres undefined) | 6.8%
Cc1ccc(NC(=O)C(C)OC(=O)COc2cccc(C(F)(F)F)c2)cc1 (centres undefined) | 9.2%
N#Cc1ccc(Oc2nc(C(N)=O)cc(-c3ccccc3)n2)cc1 | 8.0%
Cc1ccc(-c2ccc(C(=O)O)o2)cc1Cl | -2.8%
Cc1nnc(SCC(=O)N2CCCC(N3CCN(c4ccc(F)cc4)CC3)C2)o1 (centres undefined) | 3.7%
Cc1cc(C)nc(SCCn2c(N3CCOCC3)nc3c2c(=O)[nH]c(=O)n3C)n1 | -16.2%
Cc1cccc(N2CCN(C(=O)Cn3ncc4c5ccccc5n(C)c4c3=O)CC2)c1C | 9.0%
CCOc1ccc(OCCC(=O)OCC(=O)c2c(N)n(C)c(=O)n(C)c2=O)cc1 | -2.6%
CCN(CCS(=O)(=O)c1ccc(Cl)cc1)C(=O)Nc1ccc(Cl)cc1 | -5.3%
CC(=O)Nc1sc(C)c(C)c1C(=O)OCC(=O)N(C)C1CCS(=O)(=O)C1 (centres undefined) | ?
C/C(=N\NC(=O)c1cccc([N+](=O)[O-])c1)c1ccco1 | 6.5%
CCOC(=O)c1c(NC(=O)c2cccs2)sc(C(=O)N(C)C)c1C | ?
COc1ccc(NC(=S)NC2CCCC2)c(OC)c1 | -6.8%
CCOc1ccc(OCC)c(NC(=O)CCS(=O)(=O)c2ccc(C)cc2)c1 | 1.2%
Cc1ccc(Cn2c(CN3CCC(C(=O)NCc4ccccc4C)CC3)cc3ccccc32)cc1 | -8.7%
Cc1sc2ncnc(N3CCC(C(=O)Nc4ccc(Cl)cc4Cl)CC3)c2c1C | -10.2%
C/C(=N\NC(=O)C(=O)Nc1ccc(C)c(Cl)c1)c1ccncc1 | -16.5%
COc1ccc([C@H]2CC(=O)C=C(c3ccc4c(c3)OCO4)C2)cc1 | -19.5%
CCc1cccc(C)c1NC(=O)CCCn1nc(C)c2sc3ccccc3c2c1=O | 15.1%
COc1ccc(NC(C)C(=O)Nc2cc(C(F)(F)F)ccc2N2CCOCC2)c(OC)c1 (centres undefined) | -5.2%
COc1ccc(N(CC(=O)NC2CCCC2)C(=O)Cn2nnc(-c3ccc(OC)c(OC)c3)n2)c(OC)c1 | ?
COc1cccc(N2CC34C=CC(O3)C(C(=O)O)C4C2=O)c1 (centres undefined) | -4.0%
COC(=O)c1ccc(C(NC(=O)OCc2ccccc2)/C(F)=C/[C@@H](C)C(=O)O)cc1 (some centres undefined) | -5.0%&1.0%
O=C1Nc2ccccc2C12OCC1(CO2)COC2(OC1)C(=O)Nc1ccccc12 (centres undefined) | -5.1%
Following part
SMILES | VDR inh
CC(NC(=O)c1ccc2c(c1)OCO2)c1ccccc1 (centres undefined) | 21.2%
Clc1ccc(C2[C@H]3CN(CC4CCCCC4)[C@H](c4ccccc4)C34CC2(c2cccnc2)C4)cn1 (some centres undefined) | -15.4%
COc1ccc(Br)c(C(=O)OCC(=O)NC2CCCCCC2)c1 | -10.7%
CCc1ccc(S(=O)(=O)NCCc2cn3ccsc3n2)cc1 | 0.1%
CCOC(=O)C1(Cc2ccccc2)CCCN(CCO)C1 (centres undefined) | -6.7%
Cc1ccc(Nc2nnc(-c3ccc4c(c3)OCO4)o2)c(C)c1 | ?
CSCCOC(=O)COc1ccc(/C=N/NC(=O)c2nn(C)cc2Cl)cc1 | 9.3%
O=C(NCCC1=CCCCC1)c1cnccn1 | -11.4%
Cc1ccc(C(=O)Nc2cccc([N+](=O)[O-])c2)cc1S(=O)(=O)Nc1cccc(C(=O)O)c1 | -24.9%
COc1ccc2cc(Br)ccc2c1CC(=O)N(C)C | 0.2%
CCC(Sc1ncccc1C(=O)Oc1cccc([N+](=O)[O-])c1)C(=O)Nc1ccccc1OC (centres undefined) | -2.1%
Cc1ccsc1C(=O)NNC(=S)NCC(C)C | -10.8%
Cc1c(CC(=O)NCC(=O)O)c(=O)oc2cc3occ(-c4ccccc4)c3cc12 | -8.4%
COc1ccc(CN2CC(C(=O)NCCCN3CCN(Cc4ccccc4)CC3)CC2=O)cc1 (centres undefined) | -12.6%
CCOC(=O)CCCNC(=O)COC(=O)c1cc(Br)c(Br)s1 | -9.3%
N#Cc1ccc(S(=O)(=O)NC2CCN(Cc3ccccc3)CC2)cc1 | 21.9%
O=c1sc2ccccc2n1COc1ccc(Cl)cc1 | 18.1%
Cc1nnc(SC(C)C(=O)Nc2ccc(Cl)cc2Cl)[nH]c1=O (centres undefined) | 5.7%
O=c1c2ccccc2nc(-c2ccccc2)n1CCN1CCOCC1 | -6.0%
CCN(CC)C1CCN(C(=O)c2cc(COc3ccc(-n4cncn4)cc3)on2)C1 (centres undefined) | -0.8%
NNc1nc(N)c2c(n1)-c1ccccc1CC21CCCC1 | -19.4%
CC(Sc1nc(C(C)(C)C)cc(-c2ccccc2)c1C#N)C(=O)Nc1ccccc1 (centres undefined) | ?
CC(=O)/C(N=Nc1ccc(C(=O)O)cc1[N+](=O)[O-])=C(\C)O | 14.7%
Cc1sc2nc(CSCC(=O)Nc3ccc(Cl)cc3F)[nH]c(=O)c2c1C | -20.4%
CCC(=O)N1CCc2cc(S(=O)(=O)NCCC(=O)Nc3ccc(C)cc3)ccc21 | 5.3%
S=C(c1ccc(-c2cc(Cl)ccc2Cl)o1)N1CCOCC1 | -5.8%
CCC(CC)C(=O)Nc1cc(NC(=O)C(CC)CC)cc(C(=O)O)c1 | 4.3%
COc1ccc(OC)c2sc(N(Cc3cccnc3)C(=O)c3ccc(C(C)=O)cc3)nc12 | 14.7%
COc1ccc(S(=O)(=O)NCC2CCC(C(=O)NCCCN3CCCC3=O)CC2)cc1 (centres undefined) | -3.4%
COc1ccc(CN=C2NC(=O)CC(C(=O)Nc3ccc(Cl)cc3)S2)cc1 (centres undefined) | 3.7%
Nc1ccn(CC(=O)NCc2ccc3[nH]ccc3c2)c(=O)n1 | 26.8%
Cc1ccc(Nc2nc(=O)c3cc([N+](=O)[O-])ccc3s2)cc1 | -10.0%
COc1ccc(NC(=O)c2cccs2)cc1C(=O)N1CCN(c2ccccc2)CC1 | -16.8%
CCCN1CNC(=S)N(c2ccccc2C)C1 | -1.7%
O=C(CN1CCC(n2nnc3cc(F)ccc32)CC1)Nc1ccccc1N1CCOCC1 | 6.5%
CCCc1cc(C(=O)N2CCCC(C(=O)c3ccc(Cl)cc3)C2)n(C)n1 (centres undefined) | -17.1%
CC(=O)Nc1cccc(NC(=O)C2CC(=O)N(C3CCCCC3)C2)c1 (centres undefined) | ?
C=C(C)CSc1nnc([C@@H](NC(=O)OC(C)(C)C)C(C)CC)o1 (some centres undefined) | 0.4%
CS(=O)(=O)N1CCC(Oc2ccccc2C(=O)NC2CCOC2)CC1 (centres undefined) | -1.3%
Cc1occc1C(=O)NNC(=O)c1ccccc1Br | -25.3%
CN(C)c1nc(N)nc(-c2ccco2)n1 | -2.3%
CCOC(=O)c1c(C)oc2c1c1c(c3ccccc32)OCN(CCCC(=O)O)C1 | 89.1µM*
CCC(CC)C(=O)Nc1c(C(=O)N2CCN(c3ccccc3)CC2)oc2ccccc12 | -13.2%&0.6%
COc1cccc(C(C(=O)NC2CCCCC2)N(C(=O)Cc2cccs2)c2ccc(-n3cnnn3)c(OC)c2)c1 (centres undefined) | 5.1%
CCCn1nnc(NC(=O)c2ccc(OCC)c(Cl)c2)n1 | -3.7%
CCCCOC(=O)CSCC(=O)N1N=C(c2cccs2)CC1c1ccc(F)cc1 (centres undefined) | -13.7%
CCn1c(C)nc2cc(C(=O)OC)ccc21 | -5.3%
Cc1ccc(F)cc1NC(=O)c1ccc(OCC2CCCO2)cc1 (centres undefined) | 7.7%
O=C(CN1CCC(O)(c2ccc3c(c2)OCO3)CC1)OC1CCCCC1 | 6.0%
COc1ccc(-c2cn3ccccc3n2)cc1 | 1.6%
CCCNC(=O)N1CCN(c2ncccn2)CC1 | 1.5%
CCOC(=O)c1cnc(SCC(=O)Nc2cc(OC)ccc2OC)nc1N | -9.8%
CCOC(=O)c1c(NC(=O)CSc2nnc(C)c(=O)[nH]2)sc2c1CCC2 | -6.2%
CCOC(=O)c1cccc(Nc2nc(-c3cccnc3)nc3ccccc23)c1 | 11.9%
CCC(OC(=O)c1ccco1)C(=O)NCc1ccc(C)cc1 (centres undefined) | 1.9%
CCOc1ncccc1C(=O)OCC(=O)Nc1ccc2c(c1)OCCO2 | -6.5%
CC1=NCCN1S(=O)(=O)c1c(C(C)C)cc(C(C)C)cc1C(C)C | -17.8%
CCC(Oc1ccccc1)C(=O)Nc1nnc(C(F)(F)F)s1 (centres undefined) | -10.3%
O=C(CN1CCN(c2ccc(F)cc2)CC1)Nc1nnc(-c2ccccc2)s1 | 10.5%
CCCCCCSc1ccc([C@H]2N[C@@](C)(C(=O)OC)[C@H]3C(=O)N(CC)C(=O)[C@@H]23)cc1 | -10.6%

Shown in CSV form: entries from further up.
compound,VDR inh
CCCCOC(=O)CSCC(=O)N1N=C(c2cccs2)CC1c1ccc(F)cc1 (centres undefined),-13.7%
CCn1c(C)nc2cc(C(=O)OC)ccc21,-5.3%
Cc1ccc(F)cc1NC(=O)c1ccc(OCC2CCCO2)cc1 (centres undefined),7.7%
O=C(CN1CCC(O)(c2ccc3c(c2)OCO3)CC1)OC1CCCCC1,6.0%
COc1ccc(-c2cn3ccccc3n2)cc1,1.6%

VDR inh: hit marks shown above.
SMILES | VDR inh
O=C(Nc1cc(S(=O)(=O)N2CCOCC2)ccc1N1CCCCC1)c1cc(-c2ccccn2)nc2ccccc12 | 44.7µM*
CCOC(=O)c1c(C)oc2c1c1c(c3ccccc32)OCN(CCCC(=O)O)C1 | 89.1µM*

Other structures follow.
SMILES | VDR inh
CCn1c(CNC(=O)Cc2ccc(OC)cc2)nnc1SCCOc1ccccc1 | 7.9%
Cc1cc(C)c(Cn2cnc3ccccc32)c(C)c1 | 11.1%
CCOCCCNC(=O)CN1C(=O)COc2ccc(S(=O)(=O)N3CCCC3)cc21 | 6.7%&-15.1%
O=C(O)[C@@H]1CCCNC1 | 3.0%

3 compounds out of the list above, arranged by their value in VDR inh, ascending.
canonical_smiles | VDR inh
O=C(O)[C@@H]1CCCNC1 | 3.0%
CCn1c(CNC(=O)Cc2ccc(OC)cc2)nnc1SCCOc1ccccc1 | 7.9%
Cc1cc(C)c(Cn2cnc3ccccc32)c(C)c1 | 11.1%
